Bioassay records deposited in PubChem BioAssay by National Center for Advancing Translational Sciences (NCATS).
2A firefly – FMDV 2A StopGo reporter, firefly signal; HEK cells with a luciferase reporter of 2A StopGo recoding; Potency, µM (titrated, usually from 57.5 µM), for inactives: at the top dose signal change, negative = less light; 120,000 compounds, 0.23% hits; AID 1745856; active = well fitted falling curve with a large enough effect; inconclusive = small, poorly fitted or top-dose-only effect; inactive = no such curve, though single readings can be large or run the other way; also: nearly all actives have a fitted effect of over 60% in size; overnight with compound
StopGo RLuc – FMDV 2A StopGo reporter, Renilla signal | HEK cells with a luciferase reporter of 2A StopGo recoding | Potency, µM (top dose mostly 57.5 µM), without a hit: top-dose signal change, negative = less light | 120,000 compounds, 0.32% hits | AID 1745857; active means well fitted falling curve with a large enough effect; inconclusive means small, poorly fitted or top-dose-only effect; inactive means no such curve, though single readings can be large or run the other way; also: nearly all actives have a fitted effect of over 55% in size; overnight with compound
Starred values were filed as active, the others as inactive; ? = inconclusive; & = joins results of further samples; [ ] = remark or other dose. % is scaled to controls: 0 for no effect and ±100 for the full control effect; potency is read from the fitted curve at half-maximal effect. These rows are one share of the data; the hit share may differ from the screen's.

SMILES | 2A firefly | StopGo RLuc
O=C(COC(=O)c1cccc([N+](=O)[O-])c1)c1ccc(Cl)cc1 | 54%[activator] | -10%
CC(C)(C)CC(=O)C(C#N)C(=O)Nc1ccccc1Cl (configuration not stated) | 0% | 0%
CCOc1ccc(NC(=O)Cc2cc(Cl)c3c(c2)OCCCO3)cc1S(=O)(=O)N(C)C | ? | ?
CCc1ccc(CNc2nc3nc(CC)cc(=O)n3[nH]2)cc1 | 23% | 13%
CCc1ccc(NS(=O)(=O)c2ccc(OC)c3ncccc23)cc1 | 13% | 261%[activator]
CCC(NC(=O)Nc1cccc(C)c1)c1c(-n2cccc2)sc2c1CCN(C)C2 (configuration not stated) | -17%&-13% | -9%&-10%
O=C(CCc1ccccc1)N(Cc1cccnc1)c1nc2c(F)cc(F)cc2s1 | 33%[activator] | 2%
CCc1ccccc1NC(=O)CN(c1ccccc1OC)S(=O)(=O)c1ccc(C)cc1 | -8% | 105%[activator]
CCN1C(=O)N/C(=C/c2cn(C(C)C)c3ccccc23)C1=O | 1% | -3%
O=C(OCc1ccccc1)c1c[nH]c2ccccc12 | 0% | 70%[activator]
CC(=O)c1cccc(NC(=O)C2CCCN(c3nnc(-n4cccc4)s3)C2)c1 (configuration not stated) | -31% | -26%
Cc1ccc(NC(=O)Cn2c(=O)c3c(ncn3Cc3ccccc3)n(Cc3ccccc3)c2=O)cc1F | 9% | 7%
CCc1ccc(CNC(=O)C2CCN(C(=O)c3ccc(-n4ccc5ccccc54)s3)CC2)cc1 | 41%[activator] | -8%
CCC(C)NC(=O)CS(=O)(=O)Cc1cc(C)no1 (configuration not stated) | -6% | -5%
C=CCn1c(SCCCCCC)nc2c1c(=O)n(C)c(=O)n2C | 23% | 12%
Cc1nc(SCC(=O)NC(c2ccc3c(c2)OCCCO3)C(C)C)c(C#N)c(C)c1C (configuration not stated) | -8% | 41%[activator]
C/C=C(\C)C(=O)OC1Cc2cc3ccc(=O)oc3cc2OC1(C)C (configuration not stated) | 0% | 27%
CCn1cc(C(=O)Nc2cccc3ncccc23)c2ccccc21 | -13% | -22%
COc1cc(OC)c(NS(=O)(=O)c2cc(-c3n[nH]c(=O)c4c3CCCC4)ccc2C)cc1Cl | ? | 164%[activator]
COC(=O)c1ccc(C2C(C(=O)c3ccco3)=C(O)C(=O)N2CCc2ccccc2)cc1 (configuration not stated) | 47%[activator] | 82%[activator]
CCOC(=O)COc1ccc2c(C)c(CC(=O)OC)c(=O)oc2c1 | 1% | -2%
CCOC(=O)C1=C(N)Oc2cc(C)oc(=O)c2C12C(=O)Nc1ccccc12 (configuration not stated) | -1% | 7%
O=C(NCCSC1CCCC1)C1CCCO1 (configuration not stated) | 62%[activator] | 4%
CCn1c(C)c(C)c2cc(C(=O)NCCc3cc(OC)c(OC)c(OC)c3)ccc21 | -33% | ?
CCOC(=O)C(N)c1c(C)cc(C)cc1C (configuration not stated) | 22% | 16%
O=C(O)C1CC(=O)N(C2CC2)C1 (configuration not stated) | 8% | 7%
O=C(Nc1ccc(-c2nc3ccccc3o2)cc1)c1cccc(F)c1 | 158%[activator] | -7%
CCc1nc2ccccc2c(C(=O)OC(C)C(=O)NC(N)=O)c1C (configuration not stated) | 13% | 14%
CCCCn1c(=O)[nH]c(=O)c2c1nc(-c1ccccn1)n2CC | 6% | 6%
COc1ccccc1-c1nnc(C2CCN(C(=O)c3ccc(Cl)cc3)CC2)o1 | -18% | 5%
Cc1cc(C)cc(NC(=O)COc2cccc3c(=O)n(C)ccc23)c1 | -5% | 37%[activator]
Cc1ccc(-c2nc(C(=O)N3CCN(C(C#N)c4ccc(F)cc4)CC3)cs2)cc1 (configuration not stated) | 0% | 35%[activator]
Cc1cc(C(=O)O)ccc1-c1ccc(C=C(C#N)C#N)o1 | 0% | 2%
COC(=O)c1cc2sccc2n1CC(=O)Nc1ccc(C)cc1C | -5% | -7%
CONC(=O)CC(c1ccccc1)c1ccccc1 | 9% | 7%
COc1ccc2c(C)c(CC(=O)NCCc3ccc(Cl)cc3)c(=O)oc2c1C | -1%&-4% | -5%&7%
CCCCC(=O)Nc1ccc(-c2cn3ccc(C)nc3n2)cc1 | 137%[activator] | 6%
CCCN(CCC)CCNC(=O)CS(=O)Cc1nc(-c2ccc(OC)c(OC)c2)oc1C (configuration not stated) | 13%&-8% | -1%&-10%
COc1ccc(C2C3=C(CCCC3=O)Nc3c(C#N)cnn32)cc1OC (configuration not stated) | 8% | -5%
COC(=O)c1cc(-c2ccc(Cl)cc2)nc2onc(C(C)C)c12 | 21% | 4%
CCN(Cc1ccc(OCc2ccccc2)cc1)C(=O)c1ccc2c(c1)OCO2 | 7% | 163%[activator]
CCc1nnc(NC(=O)CCc2ccc(-c3ccc(C)c(C)c3)o2)s1 | 28% | 8%
CCc1ccccc1NC(=O)[C@@H](c1ccccc1)N1Cc2ccccc2C1=O | -9% | 81%[activator]
Cc1cccc(OCc2nc(C#N)c(NC(C)c3ccccc3)o2)c1 (configuration not stated) | 27% | 10%
CCSc1nc2ccccc2c(OCc2ccc(Cl)cc2)c1C(=O)OC | 11% | 13%
Cc1cccc(-c2nc(C)c(CCNC(=O)C(=O)Nc3ccc(C)c(F)c3)s2)c1 | 106%[activator] | -3%
COc1cccc(CNC(=O)CSc2nnc(C)c3c(C)n(-c4ccccc4)nc23)c1 | -15% | -18%
Cn1c(CN2CCOCC2)nnc1SCc1ccc(Br)cc1 | -9% | 7%
O=C(NCc1cccs1)c1ccc(CSc2nc3ccncc3n2Cc2ccccc2F)cc1 | 86%[activator] | 62%[activator]
CCCC(=O)Nc1sc2c(c1C#N)CCC(C(C)(C)C)C2 (configuration not stated) | 0% | 12%
Cc1cccc(CSc2nc3cccnc3n2Cc2ccc(C(=O)NCc3ccco3)cc2)c1 | 26% | -11%
CCOCCCNC(=O)c1cc(SC)ccc1C | 1% | 13%
CN(C)c1ccc(CNC(=O)C2CCN(C(=O)c3ccc(-n4ccc5ccccc54)s3)CC2)cc1 | 3% | -29%
CCCOc1ccc(C2c3c(-c4ccccc4O)n[nH]c3C(=O)N2CCO)cc1 (configuration not stated) | -23% | -6%
O=C(CNC(=O)c1ccc2c(c1)OCO2)Nc1ccc2c(c1)Cc1ccccc1-2 | 39%[activator] | 6%
COc1ccccc1Nc1nc(-c2cc(C)ccc2C)cs1 | 130%[activator] | 18%
CC1=C(C(=O)N2CCN(c3ccc(Cl)cc3)CC2)C2(CCC(C)CC2)OC1=O (configuration not stated) | 7% | -5%
CCC1=C(C)CN(C(=O)NCCc2ccc(S(=O)(=O)NC(=O)NC3CCC(C)CC3)cc2)C1=O (configuration not stated) | -4%[11.5 µM] | 55%[activator]
O=C1CCCC2=C1C(c1ccco1)Nc1ccc3ccccc3c12 (configuration not stated) | 66%[activator] | 18%
COCCNC(=O)N1CC=C(c2ccc(F)cc2)CC1 | 43%[activator] | 2%

13 structures from above, sorted by SMILES length, low to high.
SMILES | 2A firefly | StopGo RLuc
O=C(NCCSC1CCCC1)C1CCCO1 (configuration not stated) | 62%[activator] | 4%
COCCNC(=O)N1CC=C(c2ccc(F)cc2)CC1 | 43%[activator] | 2%
CCc1ccc(CNc2nc3nc(CC)cc(=O)n3[nH]2)cc1 | 23% | 13%
CCc1nc2ccccc2c(C(=O)OC(C)C(=O)NC(N)=O)c1C (configuration not stated) | 13% | 14%
COC(=O)c1cc(-c2ccc(Cl)cc2)nc2onc(C(C)C)c12 | 21% | 4%
Cc1cc(C)cc(NC(=O)COc2cccc3c(=O)n(C)ccc23)c1 | -5% | 37%[activator]
O=C(CCc1ccccc1)N(Cc1cccnc1)c1nc2c(F)cc(F)cc2s1 | 33%[activator] | 2%
CCc1ccccc1NC(=O)CN(c1ccccc1OC)S(=O)(=O)c1ccc(C)cc1 | -8% | 105%[activator]
CCn1c(C)c(C)c2cc(C(=O)NCCc3cc(OC)c(OC)c(OC)c3)ccc21 | -33% | ?
CC1=C(C(=O)N2CCN(c3ccc(Cl)cc3)CC2)C2(CCC(C)CC2)OC1=O (configuration not stated) | 7% | -5%
COC(=O)c1ccc(C2C(C(=O)c3ccco3)=C(O)C(=O)N2CCc2ccccc2)cc1 (configuration not stated) | 47%[activator] | 82%[activator]
CN(C)c1ccc(CNC(=O)C2CCN(C(=O)c3ccc(-n4ccc5ccccc54)s3)CC2)cc1 | 3% | -29%
CCC1=C(C)CN(C(=O)NCCc2ccc(S(=O)(=O)NC(=O)NC3CCC(C)CC3)cc2)C1=O (configuration not stated) | -4%[11.5 µM] | 55%[activator]

Additional results
SMILES | 2A firefly | StopGo RLuc
CC(C)NC(=O)N1[C@H](c2cccs2)[C@@H](C)C(=O)[C@@H](C)[C@@H]1c1cccs1 | -11% | -11%
Cn1c(=O)n(C)c2cc(N3CCCCC3)c(NC(=O)Nc3ccc(Br)cc3)cc21 | -28% | -16%
CCOC(=O)C1=C(CN(Cc2ccco2)C2CCCC2)NC(=O)NC1c1ccc(C)cc1 (configuration not stated) | ? | -29%
O=C(COc1ccc2c(=O)c(Oc3ccc(F)cc3)coc2c1)NCc1ccccc1 | -10% | -15%
COc1cccc(CN(C)CC(C#N)CCC#N)c1OC (configuration not stated) | 11% | 0%
Cc1nn(-c2ccc(Cl)nn2)c2c1C(c1cccc3nccnc13)CC(=O)N2 (configuration not stated) | 5% | 7%
CC1CCCCN1S(=O)(=O)c1cc2c(=O)nc3ccccn3c2cc1Cl (configuration not stated) | -13% | -5%
COc1ccc2c(C)c(CC(=O)O)c(=O)oc2c1OC | 3% | -5%
CCOC(=O)c1cccc(NC(=O)N2CCC(CN3CCc4ccccc4C3)CC2)c1 | 12%&-14% | -12%&-10%
Cc1nn(-c2ccc(=O)[nH]n2)c2c1C(c1cccc3nccnc13)CC(=O)N2 (configuration not stated) | 20% | -3%
CCOC(=O)c1nc(NCc2cccc(OC)c2)c2ccccc2n1 | 6% | 10%
Cc1ccc2nc(NCc3ccccc3)c3nnnn3c2c1 | -13% | 1%
CC1(C)C2CCC1(C(=O)Nc1ccc(C(F)(F)F)cc1)c1nc(C#N)c(C#N)nc12 (configuration not stated) | ? | ?
O=C(Cn1ncc2c3ccccc3n(Cc3cccc(Cl)c3)c2c1=O)N1CCCCCC1 | -18% | -3%
O=C(O)CCn1cc(C(C(=O)O)N2CCCCC2)c2ccc(Br)cc21 (configuration not stated) | 12% | 0%
CCCCOC(=O)c1ccc(NC(=O)c2cc(=O)c3cc(CC)ccc3o2)cc1 | 6% | -8%
COc1cc(OC)c(NC(=O)c2c(C)oc3ncn(C)c(=O)c23)cc1Cl | -12% | -6%
CCOC(=O)c1nc2ccccc2nc1NCC(C)c1ccccc1 (configuration not stated) | -9% | -2%
Cc1ccc(C(=O)N/C(=C/c2ccccc2)C(=O)NCC(=O)O)cc1 | 5% | 0%
Cc1cccc2nc(-c3ccc(O)cc3)c(Nc3ccccc3)n12 | 47%[activator] | 6%
O=C(NC1CCCCNC1=O)c1cc(-c2ccco2)on1 (configuration not stated) | 127%[activator] | -8%
COc1cc(-c2cc(OC)c3c(C)oc(C)c3c(=O)c2)ccc1OC(=O)c1ccccc1C | 22% | 17%
CCN(CC)CCCC(C)NC(=O)c1cc(=O)c2ccccc2o1 (configuration not stated) | 0% | -8%
O=C(O)CCc1cccc(Cl)c1Cl | 23% | 7%
CC(CNC(=O)CCCn1c(=O)c2cccn2c2ccc(F)cc21)c1ccccc1 (configuration not stated) | -7% | 53%[activator]
Cc1oc(-c2ccccc2)nc1CC(=O)Nc1ccc(Cl)cc1Cl | 29% | 17%
O=C(Cn1cc(S(=O)(=O)N2CCCC2)c(S(=O)(=O)N2CCCC2)c1)Nc1cccc(F)c1 | 0% | 36%[activator]
Cc1cc(C)c(S(=O)(=O)N2CCN(Cc3nc4ccc(C)cc4o3)CC2)c(C)c1 | ? | ?
CCC(=O)Nc1ccccc1-c1nc2ccccc2n(CC(=O)Nc2ccc(C)c(C)c2)c1=O | -26% | 2%
COc1ccc(Cn2c(CCC(=O)Nc3ccc(C)cc3C)nc3cccnc32)cc1 | -11% | -3%
O=C(OCC(=O)c1c[nH]c2ccccc12)c1ccc(CO)cc1 | 55%[activator] | 0%
COc1cc(NC(=O)Cn2c(=O)n(Cc3ccccc3)c(=O)c3oc4ccccc4c32)cc(OC)c1 | -13% | -4%
C=CCn1cnnc1SCC(=O)c1c[nH]c2ccccc12 | 0% | 35%[activator]
Cn1c(=O)c2c(ncn2CC(=O)Nc2ccc(Cl)c([N+](=O)[O-])c2)n(C)c1=O | 2% | 5%
CCc1oc2ccccc2c1/C=C(/C#N)C(=O)NC1CC1 | -4% | 28%
CC(=O)c1sc(Cc2cccc(Cl)c2)nc1C | 32%[activator] | 36%[activator]
COc1ccc(C(=O)Nc2ccc3oc(-c4cccnc4)nc3c2)cc1 | 0%&16% | 7%&-4%
CCn1c(=N)c(C(=O)NCc2ccccc2)cc2c(=O)n3cc(C)ccc3nc21 | -6% | -4%
CCCc1c2c(nn1-c1cc(Cl)ccc1OC)CC(C)(C)CC2=O | 2% | 23%
CC(C)c1ccccc1NC(=S)NCCCNC(C)(C)C | -9% | 4%
CSc1ccc(CCNC(=O)CN2C(=O)c3cccnc3Oc3ccc(C)cc32)cc1 | 17% | 40%[activator]
COC(=O)c1ccc(C(=O)Nc2ccc(-c3nc4cc(NC(=O)c5ccc(C(=O)OC)cc5)ccc4o3)cc2)cc1 | -14% | -10%
CCn1c(CSc2n[nH]c(-c3ccccc3)n2)nc2cc(S(=O)(=O)N3CCCCC3)ccc21 | -17% | 31%[activator]
